# MenB inh: M. tuberculosis MenB inhibitors, primary screen, biochemical, absorbance. 1,4-dihydroxy-2-naphthoyl-CoA synthase (Mycobacterium tuberculosis (strain ATCC 25618 / …. MenB enzyme assay, absorbance read-out; some hits fall short of the stated cut. inhibition, %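 (about 12 µg/mL by stock and volumes)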. 0.43% of 100,000 active;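 active = mean of two replicates above 30%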;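 note: 0% = no compound and 100% = wells with inactive enzyme; the first replicate is given; strong numbers were not always called active; inactives centre near -10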
# Target sequence (P9WNP5 whole entry, looked up): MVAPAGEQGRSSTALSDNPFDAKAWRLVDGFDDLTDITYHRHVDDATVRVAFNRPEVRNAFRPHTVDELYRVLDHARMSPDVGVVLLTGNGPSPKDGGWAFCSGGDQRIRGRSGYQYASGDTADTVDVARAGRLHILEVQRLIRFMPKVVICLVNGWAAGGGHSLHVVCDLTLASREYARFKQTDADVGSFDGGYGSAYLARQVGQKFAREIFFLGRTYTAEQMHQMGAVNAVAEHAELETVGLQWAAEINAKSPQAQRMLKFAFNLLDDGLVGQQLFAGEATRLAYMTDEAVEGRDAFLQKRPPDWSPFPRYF
# PV pol inh: poliovirus RdRp elongation inhibitors, primary screen, biochemical, fluorescence polarization, total intensity; Genome polyprotein (Poliovirus type 1 (strain Mahoney)), P03300; % elongation, % (compound at 16.7 µg/mL); 0.66% of 150,000 active; poliovirus polymerase elongation; active compounds read low; in the data active = % elongation below about 90%; note: some results filed as inactive read as strong as hits
# Target sequence (P03300 1749-2209 limits assumed): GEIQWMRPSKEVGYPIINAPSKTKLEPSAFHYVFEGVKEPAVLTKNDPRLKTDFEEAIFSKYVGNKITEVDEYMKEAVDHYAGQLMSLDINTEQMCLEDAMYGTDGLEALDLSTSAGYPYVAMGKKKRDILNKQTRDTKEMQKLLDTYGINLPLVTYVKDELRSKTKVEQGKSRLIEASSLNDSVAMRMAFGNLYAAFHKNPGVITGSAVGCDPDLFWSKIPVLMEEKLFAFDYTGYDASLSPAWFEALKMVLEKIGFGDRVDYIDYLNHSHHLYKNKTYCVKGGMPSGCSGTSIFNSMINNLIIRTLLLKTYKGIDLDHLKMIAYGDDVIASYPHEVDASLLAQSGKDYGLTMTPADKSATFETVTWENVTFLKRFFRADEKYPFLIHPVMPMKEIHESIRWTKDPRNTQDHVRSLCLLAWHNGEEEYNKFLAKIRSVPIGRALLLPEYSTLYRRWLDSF
# MbtI inh: MbtI salicylate synthase inhibitors, primary screen, biochemical, fluorescence intensity; P9WFX0; purified MbtI enzyme, fluorescence intensity read-out; inhibition, %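 (about 17 µg/mL by stock and volumes)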; 0.89% of 100,000 active;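 active = above 50% in both replicates, above 80% if mildly self-fluorescent; inactive = the rest, strongly fluorescent compounds included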;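 note: 0% = mean of negative and 100% = mean of positive controls; one replicate is shown; some compounds called inactive have numbers as strong as hits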
# PV pol inh intensity: second read-out of PV pol inh, no call of its own (marks repeat the call); % elongation; measured here: total intensity read-out; formula for this scale not given here;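 total fluorescence in place of polarization; lower means less elongation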
# Active calls of the source: *; i = inactive; x = not tested or not shown; & = joins results of further samples.
# Field names – A = MenB inh; B = PV pol inh; C = PV pol inh intensity; D = MbtI inh
1) O=C1CCSc2c1cccc2C(=O)NCCCN1CCOCC1
  A: 9	B: 101	C: 105	D: -8
2) CCc1ccc(NC(=O)C2NC(=O)CC2c2ccccc2)cc1 (stereo unspecified)
  A: -3	B: 100	C: 105	D: -9
3) CN(C(=O)CN1CCOCC1)n1cnc2ccsc2c1=O
  A: -1	B: 105	C: 103	D: 3
4) CC1=CCC2C(=O)N(c3cc(C)on3)C(=O)C2C1 (stereo unspecified)
  A: -7	B: 101	C: 102	D: -3
5) O=C(C1CCCCC1)N1N=C2/C(=C/c3ccco3)CCCC2C1c1ccco1 (stereo unspecified)
  A: -36	B: 110	C: 120	D: 0
6) Fc1ccc(-n2cc(-c3ccccc3)c3c(NCc4ccccc4)ncnc32)cc1
  A: -3	B: 104	C: 100	D: 0
7) CCc1ccc(NC(=O)C(C)Nc2ccc3c(c2)OCCO3)cc1 (stereo unspecified)
  A: -5	B: 101	C: 100	D: 5
8) CCc1nc(N=C(N)N)nc2ccc(C)cc12
  A: -23	B: 104	C: 101	D: 90
9) O=C1c2ccc(F)cc2C(=O)N1N1CCOCC1
  A: -11	B: 96	C: 94	D: x
10) CCn1c(SCc2cccc3ccccc23)nnc1-c1ccco1
  A: -21	B: 105	C: 106	D: 10
11) Cc1cc(-n2c(C)cc(C(=O)CSc3ncnc4ccccc34)c2C)no1
  A: -23	B: 99	C: 98	D: 5
12) Cc1cc(N2C(=O)CS/C2=C(/C#N)C(=O)NC2CCCCC2)ccc1Cl
  A: -31	B: 105	C: 107	D: 10
13) Cc1ccc(NC(=O)NC(NC(=O)Cc2ccccc2)(C(F)(F)F)C(F)(F)F)cc1C
  A: -23	B: 98	C: 104	D: x
14) CCOc1ccc(CCNC(=O)C2CCC(=O)N2C2CCCCC2)cc1OCC (stereo unspecified)
  A: -15	B: 98	C: 100	D: -2
15) COC(=O)C1CC2=CC(=O)CCC2(C)C2C(O)CC3(C)C(CCC34CCC(=O)O4)C12 (stereo unspecified)
  A: -62	B: 103	C: 102	D: -14
16) CCc1ccc(NC(=O)CC#N)cc1
  A: x	B: 103	C: 106	D: -1
17) CSC1=N/C(=C\c2ccccc2)C(=O)S1
  A: -92	B: 100	C: 102	D: -7
18) Cc1ccccc1Nc1nnc(-c2ccc(C(=O)NCCO)cc2)c2ccccc12
  A: -16	B: 102	C: 99	D: -2
19) CC(C)(C)NC(=O)c1cccc2ccccc12
  A: 3	B: 101	C: 105	D: -3
20) CCc1cccc(NC(=O)Cn2c(C(=O)OC)cc3oc4ccccc4c32)c1
  A: -5	B: 103	C: 102	D: -2
21) CCOC(=O)CN1CC23C=CC(O2)C(C(=O)Nc2cccc(F)c2)C3C1=O (stereo unspecified)
  A: 6	B: 100	C: 103	D: -8
22) CC1=NN(c2nc3ccccc3s2)C(=O)C1
  A: 16	B: 106	C: 110	D: -13
23) CCCc1noc2c1/C(=N\O)CC(CC(C)SCC)C2 (stereo unspecified)
  A: -14	B: 99	C: 100	D: -5
24) COc1cc2c(cc1OC)C(C)N(C(=O)c1ccco1)CC2 (stereo unspecified)
  A: -12	B: 97	C: 102	D: 8
25) Cc1ccccc1NC(=S)Nc1ccccc1C(=O)Nc1ccc(F)cc1
  A: -16	B: 110	C: 104	D: -11
26) c1cc2cn[nH]c2cc1NC1CCCCCC1
  A: -4	B: 98	C: 98	D: -208
27) CCn1c(SCC(=O)Nc2ccc3[nH]c(=O)[nH]c3c2)nnc1-c1cccs1
  A: -9	B: 106	C: 103	D: 16
28) Cc1nc2sc(C(=O)NC3CCC(C)CC3)c(C)c2c(=O)[nH]1 (stereo unspecified)
  A: 9	B: 100	C: 99	D: -3
29) CCCCn1c(C(O)c2ccccc2)nc2ccccc21 (stereo unspecified)
  A: -23	B: 105	C: 100	D: -10
30) Cc1ccc(C(=O)COC(=O)CC2CC3CCC2C3)cc1 (stereo unspecified)
  A: x	B: 102	C: 103	D: 0
31) N#Cc1c(Cl)cccc1-n1ccnc1
  A: -18	B: 102	C: 102	D: 0
32) CN1/C(=C\C(=O)CSc2nncs2)C(C)(C)c2ccccc21
  A: -23	B: 108	C: 118	D: 1
33) O=C(CSc1ncnc2c1nnn2Cc1ccc(F)cc1)OCc1ccccc1
  A: -16	B: 102	C: 105	D: 4
34) Cc1cccc(C)c1NC(=O)CN1c2ccccc2CC1C (stereo unspecified)
  A: -9	B: 100	C: 105	D: -1
35) CC(C)NC(=O)CSc1nc(-c2ccccc2)cc(=O)[nH]1
  A: -19	B: 100	C: 101	D: 3
36) Cc1ccc(C(=O)N/C(N)=N/c2nc3ccccc3o2)cc1
  A: -24	B: 100	C: 96	D: 1
37) OCCNc1ncnc2ccc(Br)cc12
  A: 6	B: 101	C: 103	D: -8
38) O=C(O)c1cc(-c2ccc(Cl)cc2)cc2ccccc12
  A: 5	B: 102	C: 104	D: -7
39) COc1cc(NC(C)=O)c(C(=O)c2nccc3cc(OC)c(OC)cc23)cc1OC
  A: -14	B: 103	C: 105	D: 3
40) CCN=c1scc(-c2ccc(C)cc2)n1/N=C(\C)c1ccc(C)o1
  A: -149	B: 112	C: 117	D: 0
41) CCc1ccc2c(c1)=C(c1sc(Nc3cccc(Cl)c3C)nc1O)C(=O)N=2
  A: -29	B: 100	C: 108	D: -4
42) Oc1c(Cl)cc(Cl)cc1/C=N/c1ccnn1-c1ccccc1
  A: -58	B: 111	C: 123	D: 39
43) COCCNc1nc(SC)nc(-c2ccccc2)c1C#N
  A: -11	B: 101	C: 102	D: -16
44) Cn1ccc(N2C(=O)c3ccccc3C2=O)n1
  A: -9	B: 100	C: 97	D: 10
45) COc1ccc(C(=O)N/C=C/n2cnc3cc(C(F)(F)F)ccc32)cc1
  A: x	B: 100	C: 96	D: 2
46) COc1ccc(Nc2nnc(C)c3ccccc23)cc1
  A: -11	B: 102	C: 107	D: x
47) N#Cc1ccc(C(=O)N2CCCSC2=NCc2ccccc2)cc1
  A: -17	B: 101	C: 96	D: -13
48) Cc1ccc(-n2nc(C(=O)NCCc3ccc(Cl)cc3)c3c4ccccc4n(C)c3c2=O)cc1
  A: -26	B: 103	C: 106	D: 12
49) CN(c1ccc(O)cc1)c1nc(S(=O)(=O)c2ccccc2)c(Cl)s1
  A: -2	B: 96	C: 104	D: -8
50) COc1ccc(-c2onc(C)c2C)cc1S(=O)(=O)NCC1CCN(Cc2ccc(F)cc2)CC1
  A: -24	B: 102	C: 102	D: -7

# Next compounds
# Field names – A = MenB inh; B = PV pol inh; C = PV pol inh intensity; D = MbtI inh
51) CN(C)C(=O)C(Cc1ccccc1)N1C(=O)C2C3C=CC(C3)C2C1=O (stereo unspecified)
  A: -51	B: 106	C: 104	D: -4
52) CCc1ccc(/C=C2/C(=O)N(c3ccc(C)c(C)c3)C(=S)N2C)s1
  A: -45	B: 103	C: 104	D: 8
53) CC(Sc1nc2ncccc2o1)C(=O)N1CCCc2ccccc21 (stereo unspecified)
  A: 3	B: 100	C: 102	D: -19
54) O=C(OCC(=O)N1CCCC1)c1ccccc1Cc1ccccc1
  A: x	B: 102	C: 100	D: -1
55) O=C(O)c1cccn2c(=O)c3ccccc3nc12
  A: -7	B: 102	C: 101	D: 11
56) C/C(=N\NC(=O)c1ccc(Cl)cc1)c1ccc(-n2ccnc2)cc1
  A: -15	B: 103	C: 108	D: 9
57) Cn1c(=O)[nH]c(=O)c2[nH]c(N(CCO)CCO)nc21
  A: -28	B: 103	C: 100	D: 17
58) O=C(Nc1ccc(N2CCCC2)cc1)c1ccccc1Cl
  A: 1	B: 99	C: 103	D: 2
59) CC12CCC(C(=O)Nc3cccnc3)(OC1=O)C2(C)C (stereo unspecified)
  A: x	B: 102	C: 100	D: -12
60) O=C1CCC(=O)N1CNc1cc(C(F)(F)F)cc(C(F)(F)F)c1
  A: -31	B: 102	C: 100	D: -8
61) N#CCCSc1nccn1Cc1ccccc1
  A: -59	B: 103	C: 100	D: 0
62) COc1ccccc1C1C=C(c2cccnc2)Nc2nc3ccccc3n21 (stereo unspecified)
  A: -36	B: 60	C: 164	D: 14
63) Nc1cnn(-c2ccccc2)c(=O)c1N
  A: 1	B: 100	C: 99	D: -2
64) CCN(CCS(=O)(=O)c1ccc(Cl)cc1)Cc1nc2ccccc2c(=O)[nH]1
  A: -3	B: 102	C: 107	D: 14
65) CC(C)C(C(=O)NCc1ccccc1)N1Cc2ccccc2C1=O (stereo unspecified)
  A: 10	B: 101	C: 97	D: 2
66) Cc1ccc(NC2=NC(C)(C)N=C(N)N2)cc1
  A: -35	B: 102	C: 97	D: -24
67) COCCn1c(C)cc(C(=O)COC(=O)c2ccccc2Br)c1C
  A: x	B: 103	C: 107	D: -3
68) Cc1c(C#N)c2nc3ccccc3n2c(=O)/c1=C\Nn1cnnc1
  A: -18	B: 101	C: 108	D: -13
69) Clc1cc2c(c3ncccc13)OCN(CC1CCCO1)C2 (stereo unspecified)
  A: -4	B: 142	C: 144	D: 19
70) Cn1c(C(=O)NC2CC2)cc2c(=O)n(C)c3ccccc3c21
  A: -39	B: 102	C: 107	D: 2
71) Cc1cnc(N)c(C)n1
  A: 5	B: 103	C: 103	D: 104
72) O=C(Cc1cccs1)N1CCN(c2ccccn2)CC1
  A: -24	B: 100	C: 101	D: -124
73) Cc1nnc(SCc2ccc(Cl)cc2Cl)o1
  A: -2	B: 100	C: 101	D: -9
74) CC1=C(C(=O)Nc2ccccc2)C(c2ccco2)C(C#N)=C(SCC(=O)Nc2ccccc2)N1 (stereo unspecified)
  A: 39*	B: 102	C: 104	D: 17
75) c1ccc(-c2nonc2NCNc2nonc2-c2ccccc2)cc1
  A: -14	B: 102	C: 102	D: -10
76) N#Cc1c(N)ncc2c1CCCC2
  A: -29	B: 94	C: 104	D: i
77) Cc1c(Cl)cccc1NC(=S)N(Cc1ccco1)C(C)c1ccccn1 (stereo unspecified)
  A: -56	B: 101	C: 103	D: -28
78) Cc1ccc(S(=O)(=O)NCCC(=O)N2CCOCCOCCOCC2)cc1
  A: 2	B: 99	C: 105	D: -4
79) Cc1cccc(OCc2nnc(SCC(N)=O)o2)c1
  A: -5	B: 100	C: 104	D: -7
80) COc1ccc2c(c1OC)CN1CCc3cc4c(cc3C1C2)OCO4 (stereo unspecified)
  A: -11&-1	B: 108&100	C: 107&103	D: -38
81) Brc1cc2c(cc1CSc1nnc(-c3c[nH]c4ccccc34)o1)OCO2
  A: -19	B: 107	C: 111	D: -2
82) COc1ccc(Nc2ncc(C#N)c(N)n2)c(OC)c1
  A: -9	B: 98	C: 104	D: -10
83) O=C(Cn1cncn1)N/N=C/c1ccccn1
  A: -42	B: 104	C: 97	D: 21
84) NCCc1ccc2c(c1)OCO2
  A: 2	B: 110	C: 112	D: 4
85) Cc1nc2nc(SCC(=O)Nc3ccccc3C(F)(F)F)nn2c(C)c1Cc1ccccc1
  A: 1	B: 105	C: 109	D: -8
86) CCCC(C)C(=O)Nc1ccc(OC)cc1 (stereo unspecified)
  A: -14	B: 100	C: 103	D: -12
87) Cc1cccc(C(=O)NC(C)C(=O)Nc2ccnn2C2CCCC2)c1 (stereo unspecified)
  A: -4	B: 104	C: 104	D: 12
88) N#CCC(=O)N(c1nccs1)C1CCCCC1
  A: 10	B: 98	C: 103	D: 13
89) N#CC1(NC(=O)COC(=O)CSc2nc3ccccc3o2)CCCCC1
  A: -13	B: 104	C: 109	D: -5

# Grouped by structure: the compounds so far containing a Cl atom
# Field names – A = MenB inh; B = PV pol inh; C = PV pol inh intensity; D = MbtI inh
12) Cc1cc(N2C(=O)CS/C2=C(/C#N)C(=O)NC2CCCCC2)ccc1Cl
  A: -31	B: 105	C: 107	D: 10
31) N#Cc1c(Cl)cccc1-n1ccnc1
  A: -18	B: 102	C: 102	D: 0
38) O=C(O)c1cc(-c2ccc(Cl)cc2)cc2ccccc12
  A: 5	B: 102	C: 104	D: -7
41) CCc1ccc2c(c1)=C(c1sc(Nc3cccc(Cl)c3C)nc1O)C(=O)N=2
  A: -29	B: 100	C: 108	D: -4
42) Oc1c(Cl)cc(Cl)cc1/C=N/c1ccnn1-c1ccccc1
  A: -58	B: 111	C: 123	D: 39
48) Cc1ccc(-n2nc(C(=O)NCCc3ccc(Cl)cc3)c3c4ccccc4n(C)c3c2=O)cc1
  A: -26	B: 103	C: 106	D: 12
49) CN(c1ccc(O)cc1)c1nc(S(=O)(=O)c2ccccc2)c(Cl)s1
  A: -2	B: 96	C: 104	D: -8
56) C/C(=N\NC(=O)c1ccc(Cl)cc1)c1ccc(-n2ccnc2)cc1
  A: -15	B: 103	C: 108	D: 9
58) O=C(Nc1ccc(N2CCCC2)cc1)c1ccccc1Cl
  A: 1	B: 99	C: 103	D: 2
64) CCN(CCS(=O)(=O)c1ccc(Cl)cc1)Cc1nc2ccccc2c(=O)[nH]1
  A: -3	B: 102	C: 107	D: 14
69) Clc1cc2c(c3ncccc13)OCN(CC1CCCO1)C2 (stereo unspecified)
  A: -4	B: 142	C: 144	D: 19
73) Cc1nnc(SCc2ccc(Cl)cc2Cl)o1
  A: -2	B: 100	C: 101	D: -9
77) Cc1c(Cl)cccc1NC(=S)N(Cc1ccco1)C(C)c1ccccn1 (stereo unspecified)
  A: -56	B: 101	C: 103	D: -28
